Rango complex inh = inhibitors of Rango-importin beta complex formation. Q14974. Rango CFP/YFP FRET sensor + importin beta, 45 min. Potency, µM (series often up to 92.2 µM), for inactives: top-dose inhibition of complex formation. actives 0.031% (n = 340,000); active = rising FRET ratio curve, often small or poorly fitted; inconclusive = mostly compound fluorescence or quenching in the first reads; inactive = flat curves in all reads;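 also: potency is read from the fitted curve at half-maximal effect; 0% = DMSO wells and 100% = buffer wells lacking importin beta; nearly all actives have a fitted effect of over 15% in size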
Target sequence (Q14974 whole entry, looked up): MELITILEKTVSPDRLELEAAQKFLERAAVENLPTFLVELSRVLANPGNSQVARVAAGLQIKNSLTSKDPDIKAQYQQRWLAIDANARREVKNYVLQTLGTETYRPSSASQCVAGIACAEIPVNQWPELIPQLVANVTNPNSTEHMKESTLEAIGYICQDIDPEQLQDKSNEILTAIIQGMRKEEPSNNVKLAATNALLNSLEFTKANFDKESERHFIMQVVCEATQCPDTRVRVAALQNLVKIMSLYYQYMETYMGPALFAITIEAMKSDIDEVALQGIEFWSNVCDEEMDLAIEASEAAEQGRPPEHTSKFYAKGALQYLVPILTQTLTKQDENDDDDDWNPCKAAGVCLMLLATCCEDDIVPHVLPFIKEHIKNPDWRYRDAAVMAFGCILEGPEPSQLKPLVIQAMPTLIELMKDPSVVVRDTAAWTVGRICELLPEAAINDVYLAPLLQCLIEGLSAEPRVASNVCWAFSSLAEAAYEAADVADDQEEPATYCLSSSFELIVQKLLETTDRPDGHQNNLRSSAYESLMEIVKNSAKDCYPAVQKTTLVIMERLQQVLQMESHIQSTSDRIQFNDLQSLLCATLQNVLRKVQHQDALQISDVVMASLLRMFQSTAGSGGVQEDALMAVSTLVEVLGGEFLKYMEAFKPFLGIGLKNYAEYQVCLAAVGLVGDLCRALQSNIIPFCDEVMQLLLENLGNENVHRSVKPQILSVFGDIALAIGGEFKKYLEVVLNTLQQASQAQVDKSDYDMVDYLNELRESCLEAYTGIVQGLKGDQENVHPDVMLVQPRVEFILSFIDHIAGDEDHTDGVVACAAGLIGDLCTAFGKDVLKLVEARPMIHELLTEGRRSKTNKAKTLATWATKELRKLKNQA
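FRET biosensor Rango (snurportin 1 IBB between N-terminal EYFP and C-terminal Cerulean), 50 nM in PBS/1 mM DTT/0.02% Tween-20/0.1% BSA, preincubated 5 min RT with compound; 0.125 microM importin beta added, 45 min RT, CFP/YFP FRET ratio read.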
miR-21 reporter = miR-21 reporter, rising signal; AID 2288; HeLa miR-21 FLuc reporter, luciferase, 48 h; Potency, µM (highest dose often 38.3 µM), without a hit: at the highest dose reporter change, positive = more light; 340,000 tested, under 10 active; active = well fitted rising curve with a large enough effect; inconclusive = small, poorly fitted or top-dose-only effect; inactive = no such curve, though single readings can be large or run the other way;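 also: % of control where 0% means no effect; miR-21 action dims this reporter so a rising signal means less miR-21 action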
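Using DMEM plus 10% FBS, HeLa miR-21-FLuc cells are incubated with test compounds (final up to about 40uM) for 48 hours; firefly luciferase signal is then imaged following reagent-mediated lysis.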
GLA inh pH 4.5 = inhibitors of human alpha-galactosidase A at pH 4.5. P06280. activity change, negative = inhibition, % at 105 µM. purified enzyme, 4-MU-alpha-Gal fluorescence, pH 4.5. AID 1467. 230,000 tested, under 10 active; inconclusive = small, poorly fitted or top-dose-only inhibition, or a rising curve; inactive = flat fitted curve, though single readings scatter; no compound was filed as active;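 also: 0% = full activity with enzyme and -100% = basal without enzyme; dose as in the result columns while the protocol names 77 µM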
Rango release inh = inhibitors of RanGTP-induced Rango-importin beta complex dissociation; Potency, µM (highest dose often 46.1 µM), without a hit: at the top dose activity change, negative = inhibition; O95149+P62826; Biochemical FRET Rango-importin beta, RanGTP-induced dissociation; actives 0.071% (n = 340,000); active means falling FRET ratio curve, often poorly fitted, with flat reads before Ran was added; inconclusive means other falling curves, or compound fluorescence or quenching; inactive means flat or rising ratio curve;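 also: potency is read from the fitted curve at half-maximal effect; % of control where 0% means no effect; nearly all actives have a fitted effect of over 45% in size; -100% = wells without RanGTP and RCC1; the record marks most hits as doubtful in a second field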
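Compounds preincubate 5 min with complex of recombinant Rango and importin beta in PBS with 1 mM DTT. Ran (0.6 uM) loaded with 2 mM GTP plus 0.2 uM RCC1 starts dissociation; FRET is recorded 45 min later.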
Active calls of the source: *; ? = inconclusive; / = no result given; & = joins results of further samples. Some of the compounds tested; count on the stated rates, not on these rows.

Below each compound: Rango complex inh	miR-21 reporter	GLA inh pH 4.5	Rango release inh
O=C(O)c1cccc(S(=O)(=O)Nc2ccc(OCc3ccccc3)cc2)c1
  5.7%	6%	/	46%
Cn1c(=O)n(C)c2cc(NC(=O)c3cc4ccccc4o3)ccc21
  -0.2%	-44%	-20	0%
CC(C)c1ccc(-n2cnn(-c3ncccc3[N+](=O)[O-])c2=O)cc1
  2.2%	-45%	3	-5%
O=C(Nc1cccc(S(=O)(=O)N2CCOCC2)c1)c1cc2ccccc2o1
  -0.4%	0%	-10	4%
CCOc1ccc(S(=O)(=O)NCCC(=O)N(C)Cc2ccc(C)o2)cc1
  2.4%	/	/	24%
CCN(C(=O)CCNC(=O)Cn1cnc2ccccc2c1=O)c1ccccc1F
  0.7%	1%	/	-5%
CC(Sc1nnc(-c2ccc(OC(F)F)cc2)o1)C(=O)NCC1CCCO1 (stereo not given)
  4.0%	-6%	/	19%
CC(C)(C)OC(=O)NCCCC[C@H](NC(=O)c1[nH]cnc1C(=O)N[C@@H](Cc1ccccc1)C(=O)OC(C)(C)C)C(=O)OC(C)(C)C
  1.8%	?	-26	25%
O=C(Cn1cc2c(n1)CCCCC2)NCc1cccs1
  -2.0%	-9%	6	-2%
O=c1[nH]c2ccc(NC(=S)Nc3ccccc3)cc2[nH]1
  ?	-11%	-6	-1%
O=C(Nc1ccccc1C(=O)O)c1cc(S(=O)(=O)N2CCCCC2)c(Cl)cc1Cl
  ?	10%	/	-7%
Cc1ccc(-c2cc(N)n(-c3ccccc3)n2)cc1
  -4.5%	-54%	8	13%
CCOC(=O)c1sc(=S)n(CC)c1NC(=O)CC
  0.4%	0%	1	3%
CC1=C(C#N)C(c2ccoc2)C(C(=O)OCc2ccccc2)=C(N)S1 (stereo not given)
  -0.3%	-3%	-3	?
COc1cccc2c1Oc1cc([N+](=O)[O-])cc(N(C)C(C)=O)c1C=C2
  -1.5%	0%	/	0%
CCCCOC(=O)c1ccc(NC(=O)CSc2nncn2C)cc1
  -1.0%	-10%	0	-11%
COc1ccc(C(=O)c2c[nH]c(C(=O)NCCCn3ccnc3)c2)cc1
  2.4%	-2%	-3	3%
COc1ccccc1NS(=O)(=O)c1cc(NC(=O)c2ccccc2[N+](=O)[O-])ccc1N1CCOCC1
  -1.7%	/	/	-10%
COc1ccc(N(CC(=O)NCc2ccc(F)cc2)S(=O)(=O)c2c(C)n[nH]c2C)cc1
  2.8%	1%&-5%	/	4%
O=C(CSCc1ccc(Cl)cc1)N/N=C/c1c(Cl)cccc1Cl
  2.8%	-9%	6	-15%
Oc1ccc(-c2nccc(-c3cccs3)n2)cc1
  3.8%	-47%	-10	25%
CCC(O)(c1ccccc1)C(CN1CCOCC1)c1ccccc1 (stereo not given)
  0.0%	4%	/	4%
O=C(Nc1ccc(S(=O)(=O)N2CCCC2)cc1)c1cc(F)c(F)cc1Cl
  1.4%	0%	/	-1%
Clc1ccc(CSc2nnc(NC3=NCCCCC3)s2)cc1
  -0.9%	3%	-2	-5%
Cc1cc(C(=O)OCC(=O)N2CC(C)OC(C)C2)c2ccccc2n1 (stereo not given)
  -3.0%	/	/	-9%
O=C1CS/C(=C\[N+](=O)[O-])N1c1ccccc1
  4.5%	-1%	-12	-8%
CCOC(=O)c1csc(NC(=O)c2ccc3c(c2)OCCO3)n1
  -0.5%	4%	/	1%
CCOC(=O)c1c(NC(=O)CNCCO)sc(C)c1C
  ?	-10%	2	2%
O=C1CN(C(=O)COC(=O)c2cccnc2Cl)c2ccccc2N1
  1.1%	-1%	-1	3%
O=c1c2ccccc2nc(SCc2cc(F)cc3c2OCOC3)n1Cc1ccco1
  0.0%	-7%	-7	0%
CCOC(=O)N1CCN(S(=O)(=O)c2ccc3c(c2)CC(C)N3C(=O)C2CC2)CC1 (stereo not given)
  -1.2%	0%	/	19%
COc1ccc(C2CC3CC(c4ccccc4)N2O3)cc1 (stereo not given)
  1.1%	0%	4	4%
COc1cccc(C(=O)NC(C)C(c2cccs2)N2CCOCC2)c1 (stereo not given)
  ?	-2%	3	31%
CN(C(=O)c1ccc(S(=O)(=O)N(C)C)cc1)c1ccc2ccccc2c1
  0.1%	1%	/	5%
Cc1cc(C)nc(SCC(=O)NC2CCCCC2C)n1 (stereo not given)
  -4.8%	/	/	-5%
CSc1nnc2c3cc(F)ccc3n(Cc3ccccc3)c2n1
  ?	1%	-1	-3%
CC(=O)c1sc(NC(=O)CCN2C(=O)c3ccccc3C2=O)nc1C
  -3.8%	0%	/	-11%
O=C(O)C1CCCN(S(=O)(=O)c2ccccc2)C1 (stereo not given)
  0.3%	-4%	10	10%
COc1ccccc1NC(=O)N1CCN(c2ccccn2)CC1
  -0.7%	0%	-2	18%
CCOc1cc(-c2n[nH]c(=S)n2Cc2ccccc2)ccc1OC(F)F
  3.3%	/	/	?
CCNC(=O)N1CCC(c2nc3ccccc3s2)CC1
  -4.7%	-4%	/	6%
O=C(NC(=S)NCCc1ccccc1)c1ccccc1F
  0.4%	-44%	/	-7%
CC(=O)c1cccc(NC(=O)c2ccc([N+](=O)[O-])o2)c1
  -0.1%	/	/	5%
COc1cc(NC(=O)c2cccs2)ccc1NC(=O)c1ccccc1Cl
  -0.1%	-14%	-10	-2%
CN(c1ccc(C(=O)N2CCCCC2)cc1)S(=O)(=O)c1cccs1
  -2.0%	7%	/	-11%
O=C(O)/C=C/C(=O)Nc1ccc(Cl)c(C(=O)O)c1
  -0.4%	-13%	-7	17%
CCOC(=O)c1sc(C)c(C(=O)NCCCN2CCOCC2)c1N
  2.2%	-3%	9	-1%
CCOC(=O)CNC(=O)Cn1cnc2c(nnn2-c2ccc(F)cc2)c1=O
  -5.2%	-6%	3	1%
Cc1cccc(C)c1NC1=NC(=S)N(c2ccc(C(=O)O)cc2)C12CCCCC2
  8.6%	-1%	-11	12%
Cc1nn(Cc2ccccc2)c(Cl)c1C(=O)OC(C)C#N (stereo not given)
  -3.3%	9%	2	5%
COC(=O)CCn1nnc(-c2ccc(C(C)C)cc2)n1
  0.8%	26%	-3	-8%
CCCCN(C(=O)C1CCCC1)C1CCS(=O)(=O)C1 (stereo not given)
  2.8%	/	/	-14%
COc1cccc(-c2noc(CCC(=O)NC3CCCCC3)n2)c1
  -9.3%	-4%	-3	-8%
COc1ccc(OC)c(CCNC(=O)c2ccc3c(c2)N(Cc2ccc(F)cc2)CCS3)c1
  -4.6%	17%	/	7%
CCCc1ccc(OCc2ccc(C(=O)NCc3cccnc3)o2)c(OC)c1
  -0.4%	-8%	-11	-1%
O=C(COC(=O)CCc1nc2ccccc2c(=O)[nH]1)NC(=O)NC1CCCC1
  2.6%	-4%	-7	1%
COc1ccccc1NC(=O)C1CCN(C(=O)C2CC(=O)N(c3ccc(C)cc3)C2)CC1 (stereo not given)
  -1.0%	-1%	/	-1%
O=C1CN(C(=O)c2ccccn2)c2ccccc2N1
  3.2%	-1%	5	20%
CCc1ccc(NC(=O)CCc2nc3cccnc3n2Cc2ccc(OC)cc2)cc1
  0.8%	-3%	2	5%
O=C(COC(=O)c1ccc(Cl)nc1)NCCC1=CCCCC1
  -6.3%	-4%	-3	-15%

A few values from above.
CCOC(=O)N1CCN(S(=O)(=O)c2ccc3c(c2)CC(C)N3C(=O)C2CC2)CC1 (stereo not given) | miR-21 reporter: 0%
O=C(O)/C=C/C(=O)Nc1ccc(Cl)c(C(=O)O)c1 | miR-21 reporter: -13%

Given as tab-separated lines: part of the list above
Compound	Rango complex inh	miR-21 reporter	GLA inh pH 4.5	Rango release inh
O=c1[nH]c2ccc(NC(=S)Nc3ccccc3)cc2[nH]1	?	-11%	-6	-1%
O=C(Nc1ccccc1C(=O)O)c1cc(S(=O)(=O)N2CCCCC2)c(Cl)cc1Cl	?	10%	/	-7%

Next section:
Below each compound: Rango complex inh	miR-21 reporter	GLA inh pH 4.5	Rango release inh
COCC(C)n1c(C)cc(C(=O)CN2C(=O)NC3(CCCCC3C)C2=O)c1C (stereo not given)
  -0.4%	-14%	-2	10%
CN(CC(=O)NCc1ccccn1)S(=O)(=O)c1cc(Cl)ccc1Cl
  ?	/	/	?
Clc1ccc(SCCn2cncn2)cc1
  -2.8%	-1%	1	12%
CC1CC(C)CN(C(=O)COC(=O)c2ccc3c(c2)C(=O)N(Cc2ccco2)C3=O)C1 (stereo not given)
  -2.3%	/	/	-4%
Cn1cccc1Cc1nnc(SCC(=O)Nc2ccc(F)cc2)n1CCc1ccccc1
  -1.2%	1%	0	1%
CN(C)c1ccc(C(=O)NCc2ccc3c(c2)OCO3)cc1
  2.8%	-15%	/	6%
Cc1sc2cc(-c3cccc([N+](=O)[O-])c3)c(-c3cccc([N+](=O)[O-])c3)c[n+]2c1C
  -0.4%	-2%	4	1%
CCCCOc1cc(C(=O)NCCN(CC)CC)c2ccccc2n1
  11%&-1.2%	-20%&0%	-2&2&1&3	9%&-4%
Cc1cc(-c2cccc([N+](=O)[O-])c2)nc2ccccc12
  0.3%	-20%	3	31%
CCOC(=O)c1sc(NCc2ccco2)c(-c2nc3ccccc3s2)c1N
  ?	-29%	0	-12%
CCc1nc(SCC(=O)c2ccccc2)c2ccccc2n1
  ?	8%	-4	?
COC(=O)c1ccccc1NC(=O)Nc1ccc(C(=O)N2CCCC2)cc1
  1.0%	0%	5	-19%
CCN(CC)CC(C)CNC(=O)C1(O)c2ccccc2NC(=O)N1c1ccc(Cl)c(Cl)c1 (stereo not given)
  0.1%	-3%	/	1%
COc1ccc(Nc2nc(NCCCN3CCOCC3)nc(N)c2[N+](=O)[O-])cc1
  0.7%	-18%	-3	28%
Cc1ccc(OCC(=O)N(Cc2ccccc2)C2CCS(=O)(=O)C2)c([N+](=O)[O-])n1 (stereo not given)
  -1.9%	-6%	-3	21%
OCCN1CCN(c2cc(C(F)(F)F)nc3c(F)cccc23)CC1
  -0.8%	-5%	1	-15%
O=C(NNC(=O)C1CCCN(c2ncccn2)C1)c1ccncc1 (stereo not given)
  1.0%	4%	-2	3%
CC(=O)c1ccc(OCc2cc(C(=O)N(C)Cc3ccon3)no2)cc1
  0.9%	-7%	/	1%
CCCCOC(=O)Cn1c(=O)n(CC(=O)OCCCC)c2ccccc21
  0.7%	-2%	-5	7%
CCOC(=O)CSc1nc(-c2ccncc2)ccc1C#N
  -2.1%	-59%	2	-20%
COC(=O)c1ccc(OCC(=O)c2ccccc2)cc1
  -0.7%	-42%	7	-9%
Cc1ccc(S(=O)(=O)NNC(=O)c2sc3nc(C)cc(C)c3c2-n2cccc2)cc1
  -0.1%	1%	2	-7%
COC(=O)c1sc(NC(=O)CN2CCN(c3cccc(Cl)c3)CC2)c(C(=O)OC)c1C
  1.9%	/	/	1%
Cc1ccc(NC(=O)COC(=O)c2cccnc2)c(C)c1
  -1.9%	5%	-3	-3%
Cc1cc(C)c(-c2csc(NC(=O)C3=COCCO3)n2)cc1C
  -1.6%	/	/	6%
COc1ccc(-c2cn(-c3ccccc3)c(=S)[nH]2)cc1OC
  0.5%	-22%	/	1%
CC(C)C[C@@H](CNCC(=O)[C@H](Cc1c[nH]c2ccccc12)NC(=O)c1[nH]cnc1C(=O)N[C@H](CN)CC(C)C)NC(=O)c1nc[nH]c1C(=O)N[C@@H](CC(=O)O)C(=O)O
  ?	/	/	-29%
Cc1ccc(N(O)C(C)(C)C)cc1
  -1.3%	/	/	1%
O=S(=O)(Nc1cccc(-c2cn3cccnc3n2)c1)c1ccc(F)cc1
  -3.7%	-3%	-6	16%
COc1ccccc1C(=O)Nc1ccc(-c2nnn(CC(=O)N3CCN(C(=O)c4ccco4)CC3)n2)cc1
  -0.7%	-11%	2	-5%
CSc1ccc(NC(=O)C(C)N2CCN(C)CC2)cc1 (stereo not given)
  2.4%	-3%	/	-9%
COc1ccc(CCNC(=O)CN(c2ccc(OC)c(OC)c2)S(C)(=O)=O)cc1OC
  0.5%	-3%	-20	-2%
Cc1nc2ccccc2n1/N=C/c1ccc([N+](=O)[O-])o1
  ?	/	/	0%

Bioassay records deposited in PubChem by National Center for Advancing Translational Sciences (NCATS).
